StopGo FLuc: lowers the firefly signal of an FMDV 2A StopGo reporter | HEK cells with a luciferase reporter of 2A StopGo recoding | Potency, µM (series often up to 57.5 µM), for inactives: at the top dose signal change, negative = less light | 120,000 tested, 0.23% active | AID 1745856; active = well fitted falling curve with a large enough effect; inconclusive = small, poorly fitted or top-dose-only effect; inactive = no such curve, though single readings can be large or run the other way; further: nearly all actives have a fitted effect of over 60% in size; overnight with compound
2A Renilla: lowers the Renilla signal of an FMDV 2A StopGo reporter; AID 1745857; Potency, µM (doses to about 57.5 µM), inactives show top-dose signal change, negative = less light; HEK cells with a luciferase reporter of 2A StopGo recoding; 120,000 tested, 0.32% active; active means well fitted falling curve with a large enough effect; inconclusive means small, poorly fitted or top-dose-only effect; inactive means no such curve, though single readings can be large or run the other way; further: nearly all actives have a fitted effect of over 55% in size; overnight with compound
An asterisk follows results filed as active; ? = inconclusive; [ ] = another dose, or the depositor's remark. On the % scale 0 is the no-effect control and ±100 the full control effect; potency means the concentration at half of the fitted maximal effect. This is a subset; count on the stated rates, not on these rows.

SMILES | StopGo FLuc | 2A Renilla
Cc1ccccc1CNC(=O)c1ccc(Cn2c(SCc3ccccc3)nc3cccnc32)cc1 | 54%[activator] | 25%
CCOC(=O)CNC(=O)N1CCCN(S(=O)(=O)c2ccc3c(ccn3CC)c2)CC1 | 6% | 6%
CC(C)CN(C(=O)CN1c2ccccc2CC1C)c1c(N)n(Cc2ccccc2)c(=O)[nH]c1=O (stereo not given) | -18% | -22%
C=CCOc1ccccc1NC(=O)c1ccc(C)cc1 | 0% | 20%
O=C(Nc1cccc(-c2nc3cc(Cl)ccc3o2)c1)c1ccc([N+](=O)[O-])o1 | 39%[activator] | -4%
CCC(=O)N1N=C(c2cccc(NS(C)(=O)=O)c2)CC1c1ccc2nccnc2c1 (stereo not given) | 2% | -8%
CCCOC(=O)c1c(NC(=O)c2cc3nc(-c4ccc(OC)cc4)cc(C(F)(F)F)n3n2)sc2c1CCCC2 | -11% | -16%
O=C(NCc1noc(-c2ccccc2)n1)c1cc2ccccc2o1 | 19% | 11%
Cc1ccc(C)c(OCCOc2ccc3ccc(=O)oc3c2)c1 | 104%[activator] | 35%[activator]
N#Cc1ccccc1OCCN1CCc2ccccc2C1 | 126%[activator] | 10%
COc1ccc(NC(=O)CCc2c(C)c3ccc(OC)c(C)c3oc2=O)c(OC)c1 | -1% | 5%
CCc1cccc(CC)c1NC(=O)c1c(C)oc2ccc(O)c(CN3CCN(C)CC3)c12 | -16% | -11%
CC(=O)N1CCC(N(CCCN2CCC(C)CC2)C(=O)Nc2cc(C)ccc2C)CC1 | -18% | -11%
CC1CCCc2sc(N)c(C#N)c21 (stereo not given) | 23% | 31%[activator]
C=CC(=O)NCNC(=O)C=C | -7%[22.9 µM] | 40%[activator][114 µM]
O=C(Nc1ccccc1C(F)(F)F)c1ccc(F)c(S(=O)(=O)N2CCc3ccccc3C2)c1 | -21% | 33%[activator]
N#Cc1ccc(CSC2=NCCCN2)cc1 | -4% | -2%
CC(C)CCN(C(=O)CN(C)c1ccccc1)c1c(N)n(Cc2ccccc2)c(=O)[nH]c1=O | 2% | -8%
CCCCc1nn2c(=O)cc(COC(=O)c3cccc(NC(=O)CCc4ccccc4)c3)nc2s1 | 74%[activator] | 3%
CC1CCC(NC(=O)CCc2cn(Cc3ccc(F)cc3)c3ccccc23)CC1 (stereo not given) | 63%[activator] | -5%
O=C(CSC1=Nc2ccccc2C2=NC(c3ccccc3)C(=O)N12)Nc1ccc(F)cc1F (stereo not given) | 26% | 212%[activator]
CCOC(=O)C1=CN(Cc2ccc(F)cc2)C=C(C(=O)OCC)C1c1cccc(O)c1 | ? | -19%
CCc1nc2ccc(C(=O)N3CCN(c4cccc(OC)c4)CC3)cc2nc1CC | -12% | -7%
Cc1ccc(CN(C(=O)COc2cccc([N+](=O)[O-])c2)c2ccccn2)o1 | 52%[activator] | -19%
CCOC(=O)N1CCc2c(sc3c2C(=O)NC(c2ccccc2F)N3)C1 (stereo not given) | 8% | -6%
CN(C)c1ccc(C(=O)/C=C/c2ccc(C#N)cc2)cc1 | 35%[activator] | 30%[activator]
CC1=NN(c2nc(C)cc(C)n2)C(=O)C1Cc1ccc(Cl)cc1 (stereo not given) | 177%[activator] | -9%
O=C(Nc1ccc2c(c1)CCC2)c1cccc2ccccc12 | 106%[activator] | 33%[activator]
O=C(NCCC(c1ccccc1)c1ccccc1)NNc1ccccn1 | -9% | -3%
CCc1ccc(NC(=O)Cn2cc(S(=O)(=O)N3CCCC3)c(S(=O)(=O)N3CCCC3)c2)cc1 | -8% | -2%
Clc1cccc(Cl)c1CNCCN1CCCC1 | -14% | -1%
COCCn1cnc2c1c(=O)n(CC(=O)OCCOc1ccccc1F)c(=O)n2Cc1ccccc1 | 14% | 6%
Cc1cc(C)c2cc(C(=O)NCc3ccc4c(c3)OCO4)[nH]c2c1 | 36% | 144%[activator]
CCCCN1C(SCC(=O)OCC)=NS(=O)(=O)c2ccccc21 | 34% | 14%
CCN(CC)c1ccc(CNS(=O)(=O)c2cc3c(cc2C)NC(=O)CO3)cc1 | -22% | 8%
O=C(NCc1ccccc1)c1ccc(CSc2nc3cccnc3n2Cc2ccccc2F)cc1 | 17% | 68%[activator]
Cc1c(Cl)cccc1NC(=O)CCS(=O)(=O)c1ccc(Br)s1 | -13% | -14%
COc1ccc(OC)c(CCNC(=O)CS(=O)(=O)Cc2nc(-c3ccccc3Cl)oc2C)c1 | -10% | 42%[activator]
CCCOc1ccc(C2CC(=O)Nc3c2c(C)nn3-c2ccc3nncn3n2)cc1OCC (stereo not given) | -4% | -1%
CCOCCCNC(=O)C(NC(=O)C1CCC(CC)CC1)C(C)C (stereo not given) | 2% | 7%
CC(=O)c1c(C)[nH]c(C(=O)C(C)NC(C)c2ccccc2F)c1C (stereo not given) | -14% | -26%
CC(C)=CCC/C(C)=C/C=N/NC(=S)Nc1ccc(C)cc1 | 9% | 5%
Cc1cc(C(=O)N2CCCc3cc(C(F)(F)F)ccc32)c2ccccc2n1 | -28% | -23%
COc1ccc(C2CC(=O)Nc3c(C(=O)O)cn(-c4ccc(F)cc4)c32)cc1O (stereo not given) | -2% | -6%
NC(=O)NO | 11%[11.5 µM] | 3%

Pulled by structure from the entries so far:
SMILES | StopGo FLuc | 2A Renilla
O=C(Nc1ccccc1C(F)(F)F)c1ccc(F)c(S(=O)(=O)N2CCc3ccccc3C2)c1 | -21% | 33%[activator]
Clc1cccc(Cl)c1CNCCN1CCCC1 | -14% | -1%

Following part
SMILES | StopGo FLuc | 2A Renilla
Cc1cccc(OCC(=O)Nc2ccc3nc(Nc4cccc(Cl)c4)cc(C)c3c2)c1 | 12% | -8%
Cc1ccc(-n2ncnc2-c2cc3c(n(-c4ccc(C)cc4)c2=O)CC(C)(C)CC3=O)cc1 | 48%[activator] | 14%
O=C(/C=C/c1ccccc1)c1ccc(-n2cc(-c3ccccc3)cc2-c2ccccc2)cc1 | 63%[activator] | -20%
CCOc1ccc(C(=O)Nc2ccc3c(c2)CCCN3S(=O)(=O)c2ccc(C)cc2)cc1 | ? | -28%
CCOc1ccc(/C=C/c2nc(C#N)c(NCCc3ccccc3)o2)cc1 | 24% | 36%[activator]
Cc1ccc(-c2cnc(NCc3ccc(C(F)(F)F)cc3)n2C)cc1 | -7% | -3%
N#CC(C(=O)NCc1ccccc1)=C1CCCCCC1 | 52%[activator] | 28%
CCSc1ccccc1C(=O)NCC(C)C | 0% | 25%
CN(Cc1ccc(C(=O)NCC(F)(F)F)cc1)C(=O)c1cc(F)cc(F)c1 | 2% | -5%
CCc1nc2ccccc2n1CCCCOc1ccc(C)cc1 | ? | ?
O=S(=O)(NCc1ccc(N2CCOCC2)nc1)c1ccc(F)cc1 | 15% | -3%
CCC(CC)C(=O)Nc1cc(C)ccc1C | -14% | 5%
COc1ccc(Cn2c(CCC(=O)NCc3cccc(Cl)c3)nc3cccnc32)cc1 | -6% | 31%
COc1ccc(C(CNC(=O)c2cccc([N+](=O)[O-])c2)N2CCOCC2)cc1 (stereo not given) | -12% | -9%
CC(C)COC(=O)C(C#N)c1nc2ccccc2nc1Cl (stereo not given) | 13% | 3%
Cc1ccc(C2CC2C(=O)O)cc1 (stereo not given) | 12% | -2%
CC(NC(=O)Nc1ccc(Cl)c(Cl)c1)c1ccc(Cl)s1 (stereo not given) | ? | ?
O=C(Cc1cccc2ccccc12)NCCc1ccccn1 | 5% | 22%
CC(Sc1nc2nc[nH]c2c(=O)[nH]1)C(=O)Nc1ccc(F)cc1 (stereo not given) | -13% | -16%
Cc1ccccc1/C=C/C(=O)NC(C)CO (stereo not given) | 11% | 1%
O=C1OCCC1NCC(c1ccccc1)c1c[nH]c2ccccc12 (stereo not given) | 20% | 16%
Cc1noc(C(C)N2CCN(C(=O)c3cccs3)CC2)n1 (stereo not given) | -6% | -11%
CCc1c(C)nc2nncn2c1NCc1ccccc1 | ? | ?
CCc1ccccc1NC(=O)c1nn(-c2ccc(C)cc2)c(=O)c2c1c1ccccc1n2C | 5% | -2%
Cc1oc2cc(OCC(=O)N(C)C3CCS(=O)(=O)C3)ccc2c(=O)c1Oc1ccccc1 (stereo not given) | 22% | 8%
CC(C)c1ccc(NC(=O)c2ccc3c(c2)CCCN3S(C)(=O)=O)cc1 | ? | 8.9µM*
COCCNC(=O)CS(=O)(=O)Cc1nc(-c2ccccc2Cl)oc1C | 10% | 0%
CC(=O)c1ccc(NC(=O)CSc2nc(C)c(C)o2)cc1 | 170%[activator] | 39%
O=C(NC1(C(=O)O)CCCCC1)C1CCCO1 (stereo not given) | -6% | 6%
Cc1cccc(/C=C/c2ccc3ccccc3n2)c1 | 72%[activator] | 12%
COc1ccc(/C(O)=C2\C(=O)C(=O)N(c3ccccn3)C2c2ccc(C(C)C)cc2)cc1 (stereo not given) | 0% | -7%
COCCCNC(=O)c1sc2nc(C)c(C(=O)Nc3ccc(C)cc3C)c(-c3ccccc3Cl)c2c1N | -18% | 0%
O=C(C1Cc2ccccc2S1)N(Cc1ccc(C(F)(F)F)cc1)C1CC1 (stereo not given) | 13% | 6%
O=C(O)CCNC1CC1 | -13% | -10%
CC1CCCCN1CC(=O)NC(=O)NCc1cccs1 (stereo not given) | 167%[activator] | 116%[activator]
COc1ccc(Nc2nc3ccccc3nc2NS(=O)(=O)c2ccc(NC(C)=O)cc2)cc1 | 37%[activator] | 93%[activator]
N#C/C(=C\c1ccc2ccccc2n1)c1nc2ccccc2s1 | 161%[activator] | 0%
O=C(O)C(Sc1ncccn1)c1ccccc1 (stereo not given) | -8% | -6%
Cn1c(=O)c2[nH]c(CN3CCN(Cc4ccccc4)CC3)nc2n(C)c1=O | 1% | -7%
CCOc1cc(CNC(=O)C2CCN(c3nc4ccccc4[nH]3)CC2)cc(OCC)c1OCC | -11% | -18%
CN1CCCCCC1=NCCCn1cnc2c1c(=O)n(C)c(=O)n2C | 3% | -1%
O=C(O)CCNC(=O)C(F)(F)C(F)(F)C(F)(F)C(F)(F)C(F)(F)C(F)(F)F | 22% | 0%
C/C(=N\Nc1ccc(Cl)cc1C)c1cc2ccccc2s1 | 34%[activator] | 6%
N#Cc1nc(-c2ccc(S(=O)(=O)N3CCOCC3)cc2)oc1NCCc1ccccc1 | -9% | 0%
COc1ccc(Nc2c3c(nc4nncn24)CCC3)cc1Cl | -14% | -9%

For reference, some entries already given.
SMILES | StopGo FLuc | 2A Renilla
Cn1c(=O)c2[nH]c(CN3CCN(Cc4ccccc4)CC3)nc2n(C)c1=O | 1% | -7%
CCOc1cc(CNC(=O)C2CCN(c3nc4ccccc4[nH]3)CC2)cc(OCC)c1OCC | -11% | -18%
CN1CCCCCC1=NCCCn1cnc2c1c(=O)n(C)c(=O)n2C | 3% | -1%
O=C(O)CCNC(=O)C(F)(F)C(F)(F)C(F)(F)C(F)(F)C(F)(F)C(F)(F)F | 22% | 0%
C/C(=N\Nc1ccc(Cl)cc1C)c1cc2ccccc2s1 | 34%[activator] | 6%
N#Cc1nc(-c2ccc(S(=O)(=O)N3CCOCC3)cc2)oc1NCCc1ccccc1 | -9% | 0%

Next records.
SMILES | StopGo FLuc | 2A Renilla
Cc1cc(C)cc(-n2ccn3cnnc3c2=O)c1 | -10% | -5%
O=C1CCCc2c([nH]c3ccc(C4CCCCC4)cc23)C1 | 23% | 5%
Cc1ccc(C)c(NC(=O)Cn2cc(S(=O)(=O)c3ccc(F)cc3)c(=O)c3cc(F)ccc32)c1 | -26% | -7%
C=C(C)Cn1c(NCc2ccccc2)nc2c1c(=O)n(C)c(=O)n2C | -4% | -9%
Cc1c(Cl)cccc1NC(=O)CCN1C(=O)c2ccccc2Sc2ncccc21 | 0% | -1%
CN(Cc1ccccc1)c1nc2c(c(=O)n(C)c(=O)n2C)n1Cc1c(Cl)cccc1Cl | -1% | 3%
Cc1ccccc1-n1c(SC(C)C(=O)c2ccc(F)c(F)c2)nnc1N1CCOCC1 (stereo not given) | 1% | 10%
CCCCn1cnc2c1c(=O)n(CC(=O)Nc1ccccc1C)c(=O)n2CCCC | -9% | -9%
Cc1nc(-c2cccc(NC(=O)Nc3ccccc3C(F)(F)F)c2)no1 | 2% | 4%
N#Cc1c2n(c(=O)n(CCOc3ccc(Cl)cc3)c1=O)CCC2 | 15% | 3%
Cc1cccc(/C=C/c2cc(C(=O)O)c3ccccc3n2)c1 | 79%[activator] | -6%
CCCCOc1ccc2c(C)cc(=O)oc2c1C | 200%[activator] | 28%
COc1ccc(CNC(=O)CN2C(=O)COc3ccc(S(=O)(=O)N4CCCCCC4)cc32)cc1 | -18% | 5%
Cc1ccc(Nc2c(-c3ccc(Cl)cc3)nc3sccn23)c(C)c1 | 0% | 15%
Cc1csc(CNC(=O)c2sc(C(C)C)nc2C)n1 | ? | ?

Compound profiles (already shown). Values in the order: StopGo FLuc | 2A Renilla
Results for `CCOC(=O)CNC(=O)N1CCCN(S(=O)(=O)c2ccc3c(ccn3CC)c2)CC1` : 6% | 6%
Results for `CC(C)COC(=O)C(C#N)c1nc2ccccc2nc1Cl` (stereo not given) : 13% | 3%

Later entries:
SMILES | StopGo FLuc | 2A Renilla
COc1ccc(NC(=O)Nc2c(NC3CCCCC3)c3ccccc3oc2=O)cc1OC | -1% | -2%
COc1ccc(NC(=O)CCc2c(C)nn(-c3ccc(N4CCCC4)nn3)c2C)cc1Cl | 142%[activator] | 0%
COc1cccc(CNC(=O)N2CCN(Cc3ccc(Br)s3)CC2)c1 | -13% | -16%
CN(CC(=O)NC1(C)CCS(=O)(=O)C1)Cc1ccccc1 (stereo not given) | -7% | -11%
CCOc1ccc(NC(=O)CSc2ncc(S(=O)(=O)c3ccc(F)c(C)c3)c(=O)[nH]2)cc1 | -3% | -9%
Cc1ccccc1C1CCCN1S(=O)(=O)c1cnn(C(F)F)c1C (stereo not given) | -6% | 8%
